Screens as filed in PubChem.
MLL AF4-AF9 inh = MLL-AF4/AF9 protein interaction inhibition; AID 651704; 350,000 compounds, 0.47% hits; AlphaScreen, biotin-AF4 peptide binding to FLAG-AF9; inhibition, % at 10 µM; P42568;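 active = every replicate reaching a set inhibition limit, whatever the replicate mean, cut at about 25% in these data; inconclusive = mean inhibition reaches that limit but some replicates miss it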;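 note: 0% = plate neutral control median and 100% = total signal loss; the record names both 10 and 1 µM as test concentration; the first replicate is given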
Beta cell apopt = beta cell apoptosis inhibition; INS-1E cytokine-induced death, ATP luminescence, 48 h; percent of positive-control rescue, neutral wells zero; protection from apoptosis, % (test concentration not listed); 300,000 compounds, 0.8% hits; AID 435005;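 active = all replicates at 75% or more, or half of them and the mean; inconclusive = half reach 75% but not the mean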;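 note: 0% = cytokine-treated negative control wells and 100% = positive control rescue; higher means more ATP so stronger rescue from cytokine killing; wells of about 40 µL received 100 nL stock; the first replicate is given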
A1 inh = inhibitors of the anti-apoptotic protein A1, read as caspase activation | caspase activation, % (concentration not given with the values) | 330,000 compounds, 0.066% hits | AID 2462 | MEF A1-2A-BIM cells, Caspase-Glo 3/7 luminescence, 3 h; percent of clofoctol response, vehicle zero;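 active = over half of replicate activation scores above 10%, or exactly half above 10 with the replicate mean above 10; inconclusive = replicate mean below 10 yet half the replicates above 10; inactive = over half of replicates below 10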;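 note: wells of about 30 µL received 50 nL stock; many hits fall short of the cut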
RanGTP-Impb inh = disruptors of Ran-importin-beta complex formation – biochemical, FRET, CFP-Ran, YFP-importin-beta, homogeneous, primary screen; 300,000 compounds, 1.1% hits; inhibition, % (no concentration beside the values); AID 2216; cell-free CFP-Ran/YFP-importin-beta FRET ratio;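 active = most replicates above 15%; inconclusive = exactly half above 15%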;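 note: 0% = DMSO wells and 100% = Ran loaded with GDP instead of GTP; wells of about 40 µL received 100 nL stock; the first replicate is given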
Calb FLC = C. albicans growth modulation with fluconazole. C. albicans CaCi-2 (fluconazole-resistant clinical isolate) + fluconazole, Alamar Blue growth, 48 h. growth inhibition, % (no concentration beside the values). 300,000 compounds, 0.57% hits. AID 1979;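 active = most replicates above 75%; inconclusive = exactly half above 75%; inactive = most below 75%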;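 note: all wells also contain fluconazole at 8 µg/ml as a sub-toxic cotreatment; 0% = median of DMSO wells and 100% = median of geldanamycin control wells; wells of about 8 µL received 7.5 nL stock; the first replicate is given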
Vif A3G = HIV-1 Vif–A3G interaction blockers – biochemical, TR-FRET, GST-Vif 1-94, biotin-A3G peptide, dose response retest, primary screen (AID 1117319); inhibition, %, or IC50 in µM where a hit was titrated; TR-FRET GST-Vif / biotin-A3G peptide binding; higher % means a stronger effect; test concentration not given here; strong numbers were not always called active; 260,000 compounds, 0.57% hits;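 active = above the screen mean plus three standard deviations and confirmed in dose response; inconclusive = results disagree or hit not tested in dose response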;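 note: Vif residues 1-94 fused to GST binding biotinylated APOBEC3G peptide 110-148; 0% = full assay without inhibitor and 100% = GST in place of GST-Vif; retest series ran down from 100 µM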
T cruzi repl = T. cruzi replication inhibition; T. cruzi beta-gal in NIH3T3, luminescence, 90 h; inhibition, % (concentration not given with the values); 300,000 compounds, 1.4% hits;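 active = mean inhibition across valid replicates above about 55%, limit read from the data; inconclusive = mean below that limit but half or more replicates reach it; inactive = mean below it, under half of replicates reach it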;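 note: signal also drops with host cell toxicity which is not excluded here; 0% = plate median of DMSO wells and 100% = zero luminescence signal; higher percent means less beta-gal luminescence so fewer parasites; stock transfer was 50 nL into about 50 µL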
LANA-H2B inh = blocks KSHV LANA binding to histone H2A/H2B; cell-free LANA-H2A/H2B peptide, fluorescence polarization; inhibition, % (no concentration beside the values); 320,000 compounds, 0.6% hits; in the data active = inhibition mostly above about 10%, no sharp cut-off; inactive = mostly below about 6.7%;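 note: stock transfer was 7.5 nL into about 10 µL; 0% = median of vehicle wells and 100% = median of positive control wells; one replicate is shown; the record names a cut of 25% in any replicate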
Target sequence (Q9QR71 whole entry, looked up): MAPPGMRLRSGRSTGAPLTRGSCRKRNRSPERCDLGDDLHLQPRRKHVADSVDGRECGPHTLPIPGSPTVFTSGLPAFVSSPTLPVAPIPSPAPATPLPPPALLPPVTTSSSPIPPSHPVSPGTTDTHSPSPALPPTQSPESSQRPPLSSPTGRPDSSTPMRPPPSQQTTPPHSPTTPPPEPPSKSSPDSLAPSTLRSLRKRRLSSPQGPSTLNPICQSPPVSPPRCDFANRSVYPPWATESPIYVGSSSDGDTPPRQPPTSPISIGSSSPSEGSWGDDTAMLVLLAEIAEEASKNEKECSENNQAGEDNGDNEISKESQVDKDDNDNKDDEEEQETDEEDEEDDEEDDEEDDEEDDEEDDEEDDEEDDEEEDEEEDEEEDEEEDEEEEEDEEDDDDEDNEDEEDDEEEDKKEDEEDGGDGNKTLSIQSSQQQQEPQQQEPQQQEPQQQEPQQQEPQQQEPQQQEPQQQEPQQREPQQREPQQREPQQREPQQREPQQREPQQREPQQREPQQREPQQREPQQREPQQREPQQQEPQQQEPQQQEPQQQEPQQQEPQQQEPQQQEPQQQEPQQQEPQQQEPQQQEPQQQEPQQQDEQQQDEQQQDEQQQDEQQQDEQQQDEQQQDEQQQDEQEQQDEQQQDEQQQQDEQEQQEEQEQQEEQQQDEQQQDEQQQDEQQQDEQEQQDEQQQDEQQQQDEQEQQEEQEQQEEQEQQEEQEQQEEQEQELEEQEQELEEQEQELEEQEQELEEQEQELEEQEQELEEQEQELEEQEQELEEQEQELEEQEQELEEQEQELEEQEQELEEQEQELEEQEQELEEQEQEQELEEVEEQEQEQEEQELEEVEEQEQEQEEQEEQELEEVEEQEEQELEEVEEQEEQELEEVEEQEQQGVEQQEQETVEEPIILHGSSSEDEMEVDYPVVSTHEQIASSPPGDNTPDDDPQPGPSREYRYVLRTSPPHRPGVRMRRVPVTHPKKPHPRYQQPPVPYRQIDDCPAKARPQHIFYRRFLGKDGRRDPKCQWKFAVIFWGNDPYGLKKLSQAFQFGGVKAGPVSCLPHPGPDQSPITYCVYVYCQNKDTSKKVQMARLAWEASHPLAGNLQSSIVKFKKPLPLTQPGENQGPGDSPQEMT
* = called active by the depositor; ? = inconclusive; · = not tested or not shown; & = joins results of further samples.

nr | mol | MLL AF4-AF9 inh | Beta cell apopt | A1 inh | RanGTP-Impb inh
1 | O=C(NCCS(=O)(=O)N1CCN(c2ccccc2F)CC1)C1CC(=O)N(c2ccc(F)cc2)C1 (stereo not drawn) | -1.3 | · | 0.4 | 0.3
2 | COC(=O)c1cc(N=CC2=C(O)CC(C)(C)CC2=O)cc(C(=O)OC)c1 | -1.1 | -8 | 1.9 | -3.5
3 | Cc1ccc(C(=O)NN=CC(=O)c2ccccc2)c(C)c1 | -8.4 | -4 | -11 | ·
4 | CC1CCN(c2ncnc3c2cnn3Cc2ccc(Cl)cc2)CC1 | · | 3 | -0.1 | ·
5 | CNc1nc(C)cc(C)c1S(=O)(=O)c1ccc(C)cc1 | · | -4 | 0.9 | 4.9
6 | Cc1cc(OCC(=O)Nc2cccnc2)c2c(C)c(C)c(=O)oc2c1 | 0.9 | 6 | -0.7 | 3.8
7 | COc1ccc(NC(=O)CN(C)C(=O)c2cccc(S(=O)(=O)Nc3ccc(OC)cc3)c2)cc1 | 1.5 | -1 | -0.1 | 11
8 | CCOc1ccccc1OCCOc1ccccc1CC | · | · | 0.5 | 3.6

nr | Calb FLC | Vif A3G | T cruzi repl | LANA-H2B inh
1 | 6 | 4% | 7 | -2.1
2 | 21 | ? | -11 | 4.5
3 | · | · | · | -0.9
4 | · | ? | · | -1.0
5 | ? | 5% | 4 | 0.3
6 | 3 | · | -15 | 0.1
7 | 1 | 2% | 0 | 4.2
8 | 6 | -2% | 11 | -0.8

Later entries.
nr | mol | MLL AF4-AF9 inh | Beta cell apopt | A1 inh | RanGTP-Impb inh
9 | COc1ccc(NC(=O)N(C)C[C@H]2Oc3ccc(NC(=O)Nc4c(C)noc4C)cc3C(=O)N([C@H](C)CO)C[C@H]2C)cc1 | -1.5 | -5 | 0.0 | ·
10 | Cc1ccc(NC(=O)N[C@@H](CC(C)C)C(=O)O)c(C)c1 | -1.9 | -4 | 0.3 | 7.1
11 | O=C(Cn1ccc([N+](=O)[O-])n1)c1ccccc1 | 2.7 | -1 | 0.4 | 3.8
12 | O=C(Nc1ccc(C(=O)O)cc1)/C(=C\C=C\c1ccccc1)NC(=O)c1ccccc1Br | 1.8 | 0 | ? | 6.4
13 | CC(Sc1nncn1C)C(=O)Nc1ccc(S(N)(=O)=O)cc1 (stereo not drawn) | -3.3 | · | · | -3.5
14 | COc1ccccc1N1CCN(C(=O)C2=CC=CN3CCS(=O)(=O)N=C23)CC1 | -3.1 | -2 | -0.4 | ·
15 | COc1ccc(-[n+]2c(C)cc(/C=C3\Sc4ccccc4N3C)cc2C)cc1 | 8.5 | 116* | -1.6 | ?
16 | Cc1ccc(NC(=S)NC2CCCC2)cc1 | · | -1 | -0.2 | -0.5

nr | Calb FLC | Vif A3G | T cruzi repl | LANA-H2B inh
9 | · | · | · | 2.8
10 | 7 | · | 1 | 3.5
11 | -11 | 8% | 9 | 0.7
12 | 6 | 7% | 2 | 2.2
13 | 3 | -4% | -5 | ·
14 | · | -6% | · | ·
15 | -6 | -9% | 43 | -99
16 | -5 | 5% | -21 | 3.5

Gathered by group, those above with sulfur.
nr | mol | MLL AF4-AF9 inh | Beta cell apopt | A1 inh | RanGTP-Impb inh
1 | O=C(NCCS(=O)(=O)N1CCN(c2ccccc2F)CC1)C1CC(=O)N(c2ccc(F)cc2)C1 (stereo not drawn) | -1.3 | · | 0.4 | 0.3
5 | CNc1nc(C)cc(C)c1S(=O)(=O)c1ccc(C)cc1 | · | -4 | 0.9 | 4.9
7 | COc1ccc(NC(=O)CN(C)C(=O)c2cccc(S(=O)(=O)Nc3ccc(OC)cc3)c2)cc1 | 1.5 | -1 | -0.1 | 11
13 | CC(Sc1nncn1C)C(=O)Nc1ccc(S(N)(=O)=O)cc1 (stereo not drawn) | -3.3 | · | · | -3.5
14 | COc1ccccc1N1CCN(C(=O)C2=CC=CN3CCS(=O)(=O)N=C23)CC1 | -3.1 | -2 | -0.4 | ·
15 | COc1ccc(-[n+]2c(C)cc(/C=C3\Sc4ccccc4N3C)cc2C)cc1 | 8.5 | 116* | -1.6 | ?
16 | Cc1ccc(NC(=S)NC2CCCC2)cc1 | · | -1 | -0.2 | -0.5

nr | Calb FLC | Vif A3G | T cruzi repl | LANA-H2B inh
1 | 6 | 4% | 7 | -2.1
5 | ? | 5% | 4 | 0.3
7 | 1 | 2% | 0 | 4.2
13 | 3 | -4% | -5 | ·
14 | · | -6% | · | ·
15 | -6 | -9% | 43 | -99
16 | -5 | 5% | -21 | 3.5

Continuation:
nr | mol | MLL AF4-AF9 inh | Beta cell apopt | A1 inh | RanGTP-Impb inh
17 | CC1(C)CC(=O)c2cc(OCC(=O)N3CCN(c4ccccc4F)CC3)ccc2O1 | 3.5 | -8 | -0.4 | -4.1
18 | COc1ccc(NC(=O)C2CCC2)cc1S(=O)(=O)N1CCOCC1 | -2.6 | -5 | 0.3 | ·
19 | S=C(Nc1ccccc1Cl)N1CCN(Cc2ccccc2)CC1 | -15 | -11 | 0.7 | -0.2
20 | O=C(C1COc2ccccc2O1)N1CCN(c2nc3ccccc3s2)CC1 (stereo not drawn) | -2.9 | · | 1.6 | 5.4
21 | CCCCc1nc2sc3c(=O)[nH]cnc3c2c2c1CCCC2 | 1.4 | -2 | 0.0 | 4.1
22 | COc1cc(C2NC(=O)NC(C)=C2C(=O)OCC2CCCCC2)cc(Cl)c1O (stereo not drawn) | 1.9 | -4 | -0.1 | -1.7
23 | O=C(CN1CCN(S(=O)(=O)c2ccccc2)CC1)NCCc1ccccc1 | -0.4 | -7 | 0.7 | ?
24 | CC1(CCC#N)N=C(SCCC#N)N(c2ccccc2)C1=O (stereo not drawn) | · | -4 | -0.1 | 3.0

nr | Calb FLC | Vif A3G | T cruzi repl | LANA-H2B inh
17 | -1 | -4%&1% | 11 | 2.2
18 | · | -15% | · | 1.8
19 | -18 | 4% | -22 | -1.4
20 | -6 | · | 8 | 0.2
21 | 3 | 69% | 0 | -6.0
22 | 0 | 10% | 4 | 1.0
23 | 11 | · | 8 | 0.3
24 | -1 | -5% | -7 | 7.1

Following part
nr | mol | MLL AF4-AF9 inh | Beta cell apopt | A1 inh | RanGTP-Impb inh
25 | COc1ccc(C(CNC(=O)COc2ccccc2OC)N2CCCCC2)cc1 (stereo not drawn) | 0.7 | 0 | -0.7 | 2.1
26 | O=C(CNC(=O)c1ccc(Br)cc1)NCC(=O)OCC(=O)c1ccc([N+](=O)[O-])cc1 | -13 | 4 | -0.4 | -0.8
27 | Cc1cc(=O)oc2cc(OCCSCCN3CCCCC3)ccc12 | -1.8 | 2 | -0.3 | -1.5
28 | O=C(Nc1cccc(O)c1)c1c(O)c2ccccc2[nH]c1=O | 0.0 | · | -7.4 | -0.7
29 | COc1ccccc1NC(=O)COC(=O)Cc1ccc(S(=O)(=O)N2CCCCC2)s1 | -3.6 | -1 | 0.4 | -0.6
30 | CC(=O)c1ccc(N2CCN(C(=O)c3cccs3)C(C)C2)c(F)c1 (stereo not drawn) | 3.7 | 4 | 0.1 | 0.7
31 | C=C(C)Cn1c(CNC(C)=O)nc2ccccc21 | -0.4 | · | · | 2.5
32 | CC(C)N(C(=O)CSc1nnnn1C1CCCC1)C(C)C | -11 | -3 | -0.1 | 1.9

nr | Calb FLC | Vif A3G | T cruzi repl | LANA-H2B inh
25 | -1 | 4% | 5 | 0.8
26 | 1 | -5% | -12 | 1.0
27 | 6 | · | 10 | 5.2
28 | -2 | · | -19 | -3.8
29 | -10 | · | 5 | 0.0
30 | -14 | -10% | 4 | 5.9
31 | 8 | ? | -24 | ·
32 | 1 | -1% | 7 | 9.6

Later entries:
nr | mol | MLL AF4-AF9 inh | Beta cell apopt | A1 inh | RanGTP-Impb inh
33 | O=C(COC(=O)CCC(=O)c1cccs1)NCc1ccc(Cl)cc1 | -2.5 | -8 | 0.0 | 0.0
34 | CCOC(=O)c1c(C)[nH]c(C)c1C(=O)CSc1nnc(N)s1 | -0.8 | · | -0.3 | -1.4
35 | COc1ccc(C)cc1NC(=O)c1cc(S(=O)(=O)N2CCCCC2)ccc1N1CCOCC1 | -1.4 | 11 | 1.0 | ·
36 | COc1ccc(C(=O)c2sc3nc(-c4ccccc4)ccc3c2N)cc1OC | · | 17 | 0.1 | -27
37 | CC(C)C(OC(=O)c1ccco1)C(=O)NCc1ccccc1 (stereo not drawn) | · | -2 | 0.9 | 0.6
38 | O=C(c1ccccc1SCc1ccccc1)N1CCOCC1 | -1.4 | 1 | -0.7 | 2.1
39 | CCOc1cccc(C(=O)Nc2ccccc2C(=O)N2CCOCC2)c1 | -11 | -4 | -0.1 | -2.4
40 | Cc1cc(C)n2c(SCC(=O)Nc3ncc(C(F)(F)F)cc3Cl)nnc2n1 | · | -9 | -0.7 | -3.0
41 | CCOc1ccc(C(=O)NCC(C)NC(=O)c2ccc(OCC)cc2)cc1 (stereo not drawn) | -3.2 | 21 | 0.0 | -2.1
42 | O=C(NCCN1CCN(S(=O)(=O)c2ccc(F)cc2)CC1)C(=O)NCc1ccccc1 | 0.9 | 0 | 0.2 | 2.2

nr | Calb FLC | Vif A3G | T cruzi repl | LANA-H2B inh
33 | -5 | -3% | -9 | 4.2
34 | ? | · | 3 | 4.3
35 | · | · | · | -0.2
36 | -2 | 19% | 21 | -2.7
37 | 1 | -1% | -12 | 0.3
38 | -19 | 7% | 3 | 0.7
39 | 0 | · | -12 | -1.6
40 | · | -1% | -3 | -1.7
41 | 6 | · | -18 | 1.0
42 | 2 | -6% | -7 | 4.5

Among those listed so far, 2 have a nitro group on carbon.
nr | mol | MLL AF4-AF9 inh | Beta cell apopt | A1 inh | RanGTP-Impb inh
11 | O=C(Cn1ccc([N+](=O)[O-])n1)c1ccccc1 | 2.7 | -1 | 0.4 | 3.8
26 | O=C(CNC(=O)c1ccc(Br)cc1)NCC(=O)OCC(=O)c1ccc([N+](=O)[O-])cc1 | -13 | 4 | -0.4 | -0.8

nr | Calb FLC | Vif A3G | T cruzi repl | LANA-H2B inh
11 | -11 | 8% | 9 | 0.7
26 | 1 | -5% | -12 | 1.0
